Source: PubChem BioAssay
NPR1 antag – antagonists of human natriuretic peptide receptor Npr1; P16066; HEK293 hNpr1 GloSensor cGMP, ANP-stimulated luminescence; Potency, µM (doses to about 46.3 µM), without a hit: top-dose activity change, negative = inhibition, usual class: inhibitors; 76,000 tested, 1.6% active; active = well fitted inhibition curve with a large enough effect; inconclusive = small, poorly fitted or top-dose-only effect; inactive = no such curve, though single readings can be large or run the other way;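 also: nearly all actives have a fitted effect of over 60% in size; nearly all hits also lower the signal before the agonist is added; a reference antagonist and vehicle were the controls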
Target sequence (P16066 whole entry, looked up): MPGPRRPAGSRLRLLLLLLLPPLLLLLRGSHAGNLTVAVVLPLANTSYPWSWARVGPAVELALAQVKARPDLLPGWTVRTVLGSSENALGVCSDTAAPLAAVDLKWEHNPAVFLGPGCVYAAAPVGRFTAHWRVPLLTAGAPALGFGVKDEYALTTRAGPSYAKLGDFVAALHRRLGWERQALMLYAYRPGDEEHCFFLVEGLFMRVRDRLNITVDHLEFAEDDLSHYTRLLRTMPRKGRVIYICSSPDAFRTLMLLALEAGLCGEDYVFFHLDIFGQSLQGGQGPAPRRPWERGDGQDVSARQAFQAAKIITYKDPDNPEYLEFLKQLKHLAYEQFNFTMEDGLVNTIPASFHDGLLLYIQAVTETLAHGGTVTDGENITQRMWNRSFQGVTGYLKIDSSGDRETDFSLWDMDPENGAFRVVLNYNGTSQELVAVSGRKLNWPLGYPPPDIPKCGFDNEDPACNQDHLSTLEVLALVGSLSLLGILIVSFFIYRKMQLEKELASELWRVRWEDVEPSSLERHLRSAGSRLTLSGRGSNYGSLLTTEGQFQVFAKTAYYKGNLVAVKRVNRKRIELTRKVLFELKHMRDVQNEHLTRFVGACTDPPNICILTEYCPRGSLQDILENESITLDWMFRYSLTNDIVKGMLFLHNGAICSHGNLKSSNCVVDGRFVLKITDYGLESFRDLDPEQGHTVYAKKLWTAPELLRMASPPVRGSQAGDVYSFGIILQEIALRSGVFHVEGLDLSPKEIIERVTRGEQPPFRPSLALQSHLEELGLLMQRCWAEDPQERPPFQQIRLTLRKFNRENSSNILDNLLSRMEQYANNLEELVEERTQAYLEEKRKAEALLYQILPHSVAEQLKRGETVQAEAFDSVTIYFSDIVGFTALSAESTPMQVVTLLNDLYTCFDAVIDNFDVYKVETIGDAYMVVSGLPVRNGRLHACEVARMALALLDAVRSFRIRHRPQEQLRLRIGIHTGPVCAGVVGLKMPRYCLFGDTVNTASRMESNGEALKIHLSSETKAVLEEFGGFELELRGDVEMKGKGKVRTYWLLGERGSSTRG
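HEK293 cells stably expressing human Npr1 and cGMP GloSensor pGS-40F, loaded 2 h with 2% GloSensor reagent, given compound 30 min at room temperature. Luminescence read before and 20 min after 0.1 nM hNppA.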
The depositor's hits bear a star; ? = inconclusive; [ ] = another dose, or the depositor's remark. % is scaled to controls: 0 for no effect and ±100 for the full control effect; potency is read from the fitted curve at half-maximal effect. Only part of the results is shown; the hit share may differ from the screen's.

SMILES	NPR1 antag
CCOCc1nc(C2CCCN(C(=O)Nc3ccccc3)C2)no1 (centres undefined)	4.1%
CC(=O)N1CCc2nc(C(C)C)nc(-c3ccc(O)cc3)c2C1	0.3%[70.6 µM]
O=C1CO[C@H]2CN(Cc3ccc4c(c3)OCO4)C[C@H]2N1Cc1ccccn1	0.5%[70.6 µM]
O=C(CCC1CCCN(C(=O)Cc2c[nH]c(=O)[nH]c2=O)C1)Nc1ccccc1F (centres undefined)	1.2%
Cn1nccc1C(=O)N1C[C@@H](Oc2cccnc2)C[C@H]1C(=O)NC1CC1	9.3%
CNCC(=O)N1CCC2(CC1)CN(Cc1ccccc1)CC2CO (centres undefined)	-14.5%
C1CCC2(CC1)C(OCC1CC1)CN2C1CCNCC1 (centres undefined)	1.7%
O=C(C1CCCC1)N1CCN(c2nc3ncccc3o2)CC1	5.0%[70.6 µM]
COc1ccccc1Oc1ncccc1CNCc1c(F)cccc1Cl	-4.1%
CC(C)(C)C(=O)N1CCC2(CC1)OCC(C(=O)NCc1ccco1)N2C(=O)c1ccc(F)cc1 (centres undefined)	5.6%
CCOc1ccccc1C1NC(=O)N(CC(=O)Nc2ccccc2C(C)C)C2=C1C(=O)OC2 (centres undefined)	-15.7%
O=C1NCCOCCN(S(=O)(=O)c2cccs2)[C@@H]2CCCC[C@H]12	3.8%
O=C(CCC1CCN(S(=O)(=O)N2CCCC2)CC1)Nc1ccccc1Cl	-6.6%
COc1ccc(C(=O)N2[C@@H]3CC[C@H]2CC(NC(=O)c2ccncc2)C3)cc1 (some centres undefined)	7.2%
CCCC(=O)N1CCC2(CC1)CC(N(Cc1ccc(F)cc1)C1CC1)CCO2 (centres undefined)	-24.5%
CN(CC1CCOC1)C(=O)Nc1ccccc1Cl (centres undefined)	0.9%
CCN1C(=O)CCN(Cc2cccc(OC)c2OC)CC12CCOCC2	0.0%
Cc1cc(C(=O)N[C@H]2[C@H](O)[C@H](O)C[C@@H]2c2ccccc2)c(C(F)(F)F)o1	2.0%[70.6 µM]
COc1ccccc1-c1nnc([C@H]2CCN(C(C)=O)C2)o1	7.4%[70.6 µM]
CC(C)Cc1cn(CC2CCCN(C(=O)c3ccc4c(c3)CCO4)C2)nn1 (centres undefined)	?
Cc1noc(C)c1[S+](=O)([O-])N1CCC2(CC1)CC(=O)N(c1ccccc1)c1ccccc1O2	-2.1%
N#Cc1ccc(CN2CCn3c(nn(-c4ccc(F)cc4F)c3=O)C2)cc1	-1.2%
O=C(NCc1nnc2n1CCCC2)[C@H]1CNC[C@H](C(=O)N2CCOCC2)C1	0.0%
O=C(CCC1CCCN(Cc2cccnc2)C1)Nc1ccccc1F (centres undefined)	-1.6%
COc1ccc(-c2noc(CC3CCN(C(=O)COc4ccc(C)cc4)CC3)n2)cc1	6.31µM*
O=C(C[C@@H]1C[C@H]2O[C@H](CNCc3ccccc3OC(F)(F)F)[C@@H](O)[C@H]2O1)N1CCOCC1	1.0%
Cc1ncsc1CN1C(=O)CO[C@H](c2ccc(NS(C)(=O)=O)cc2)[C@H]1CO	5.3%[70.6 µM]
CCCCOc1ccc(C(=O)N2CCC(Cc3nc(-c4cnccn4)no3)CC2)cc1	?
Cc1ccc(N2CCC3(CCCN3Cc3ccc(C4CCCO4)s3)CC2)nn1 (centres undefined)	3.8%
OC1CCN(C2CCN(Cc3cccc(Cn4cccn4)c3)CC2)CC1	5.9%
Cn1cc(CC(=O)N2CCCc3ncc(C(=O)Nc4cccc(C(F)(F)F)c4)cc32)c2ccccc21	-4.7%
O=C(c1ccccc1F)N1CCN(C(=O)c2nnn3c2COC(c2ccc(Cl)cc2)C3)CC1 (centres undefined)	14.1µM*
CN(C)c1ccc(CN(C)C2CCc3ccccc3C2)cc1 (centres undefined)	-3.0%[70.6 µM]
CN(C)Cc1nnc(C2CCN(C(=O)CCNS(C)(=O)=O)CC2)n1C	0.4%
O=C1CC2(CCN(C(=O)c3ccccc3)CC2)Oc2cc(Cl)ccc21	8.1%
O=C(c1ccco1)N1CCC2(CC1)CN(Cc1ccccc1)CC2CO (centres undefined)	-11.6%
Cc1noc(C)c1S(=O)(=O)NCCc1noc(-c2ccccc2)n1	-2.3%
c1csc(CN2Cc3[nH]cnc3C[C@H]2c2nc(-c3ccncc3)no2)c1	-27.8%[70.6 µM]
Cc1nnc(-c2cc(-c3ccc(N4CCOCC4)cc3)ccn2)n1C1CCCCC1	1.9%[70.6 µM]
O=C(c1ccsc1)N1CCC2(CC1)N=C(c1ccc(Cl)cc1)NO2	-24.1%
COCC(=O)NC[C@@H]1C=C(C)[C@H](Cc2nc3ccc(Cl)cc3[nH]2)C[C@H]1C(C)C	1.1%[70.6 µM]
CC(C)N1C(=O)CO[C@H](c2ccc(NC(=O)c3cnccn3)cc2)[C@H]1CO	1.6%[70.6 µM]
N#Cc1cccc(NC(=O)N2Cc3[nH]cnc3C[C@H]2c2nc(-c3ccc(Cl)cc3)no2)c1	-19.0%
CCN(C)S(=O)(=O)NCC1CCN(c2cnn(C)c(=O)c2)C1 (centres undefined)	-0.3%
CC(=O)c1ccc(NC(=O)N2C[C@@H]3C[C@H](C2)c2ccc(NC(=O)c4ccc(F)cc4)c(=O)n2C3)cc1	4.1%
CC1=C[C@@H](CNS(=O)(=O)c2cccc(C#N)c2)[C@H](C(C)C)C[C@H]1CC(=O)Nc1ccccn1	-19.7%
O=C(NC1CCCCC1)N1Cc2[nH]cnc2C[C@H]1c1nc(-c2ccc3c(c2)OCO3)no1	-9.9%
COc1ccc(OC2CCN(C(C)=O)CC2)c(C(=O)NCc2cc3ccccc3[nH]2)c1	-0.8%
COCCn1c(CN(C)Cc2sccc2C)cnc1S(=O)(=O)CC1CCCCC1	?
O=C(CC1CCCC1)Nc1ccc2ncnc(N3CCCCC3)c2c1	0.4%
Continuation:
SMILES	NPR1 antag
CO[C@H]1COCCN(C(=O)c2ccc(C#N)cc2)C1	-0.2%[70.6 µM]
COc1ccc(NC(=O)N2C[C@@H]3C[C@H](C2)c2c(NC(=O)C4CCCCC4)ccc(=O)n2C3)cc1	-1.2%
Cc1noc(C)c1C(=O)NC1CC(=O)N(Cc2cccc(F)c2)C1 (centres undefined)	-5.7%
CCCCCNC(=O)CC(c1cccc(OC)c1OC)c1c[nH]c2c(CC)cccc12 (centres undefined)	0.5%
CN(C)[C@@H]1CO[C@H](CNC(=O)c2ccccc2)[C@H]1O	11.5%[70.6 µM]
CN1C(=O)CC(C(=O)O)C12CCN(C(=O)Nc1ccccc1)CC2 (centres undefined)	2.1%
Cc1ccccc1S(=O)(=O)N1C[C@@H](Oc2cccnc2)C[C@@H]1C(=O)N1CCOCC1	2.5%
Cc1nc([C@@H]2CN(Cc3ccc(C(F)(F)F)cc3)C[C@H]2C(N)=O)n[nH]1	-25.9%
CN(Cc1ccc(C2CC(=O)Nc3n[nH]c(C4CCC4)c32)o1)S(C)(=O)=O (centres undefined)	4.7%
COCCNc1ncccc1-c1noc([C@@H]2CCCN2Cc2ccc3c(c2)OCO3)n1	-3.1%[70.6 µM]
COc1ccc(-c2noc([C@@H]3CCCN3C(=O)c3cc4ccccc4[nH]3)n2)cc1OC	-3.7%
O=C(c1ccncc1)N1CCC2(CC1)NCCc1c2[nH]c2ccccc12	-0.3%
CN(C)C[C@@H]1CN(c2ccncn2)C[C@H]1NC(=O)c1ccc(Br)o1	4.3%
CC(=O)Nc1ccc(OCC(=O)NCCc2cccs2)nc1	-0.2%
COCC(=O)N1CCN(C(=O)Nc2ccccc2)C[C@H]1C(=O)N[C@H](Cc1c[nH]c2ccccc12)C(N)=O	2.1%
O=C1N[C@@H](Cc2cccs2)C(=O)N2CC[C@H](NS(=O)(=O)c3cccs3)C[C@@H]12	0.0%[70.6 µM]
Cc1ccccc1N(C)C1CN(Cc2cncs2)C1	1.6%[70.6 µM]
CC(C)C(=O)N1CCCCCNC(=O)[C@@H]2CCCC[C@@H]21	-4.0%
COc1ccc(NC(=O)Cn2c(=O)n(-c3ccc(F)cc3)c(=O)c3c2cc(C)n3C)cc1	0.2%
CC(C)n1cc(C(=O)N2C[C@@H](CN3CCOCC3)[C@@H](CO)C2)cn1	-1.7%
CN1C(=O)C2(CCCN(c3ncnc4[nH]ccc34)C2)c2ccccc21 (centres undefined)	3.5%
Cc1cccnc1CN1CCN(C(=O)Cn2nnnc2CN2CCCC2)CC1	19.0%
Oc1ccccc1CN1C[C@H](O)C[C@H]1c1nc(Cc2ccc(F)cc2Cl)no1	4.9%[70.6 µM]
CCc1ccc(NC(=O)c2ccc3c(c2)N(C)C2CCCCN2C3=O)cc1 (centres undefined)	0.0%
O=C1NCN(Cc2ccc(Cl)cc2)C12CCN(Cc1ccccc1C(F)(F)F)CC2	0.0%
CCCOCCCNC(=O)c1c(C)noc1-c1ccc(C(C)(C)C)cc1	2.6%
Cc1ccc(Cc2c(C)nc3c(C(=O)N4CCC(Cc5nncn5CC5CC5)CC4)cnn3c2C)cc1	0.0%
Cc1ccc(N2CCC(NS(=O)(=O)C3CC3)C2=O)cc1C (centres undefined)	-3.4%
Cc1cn2nc(C(=O)Nc3ccc(C(=O)N4CCCC4)cc3)cc2c(=O)[nH]1	4.7%
COc1ccc(C2Cn3nnc(C(=O)N4CCN(C(=O)c5ccc(F)cc5Cl)CC4)c3CO2)cc1 (centres undefined)	11.2µM*
CCOc1ccccc1C(=O)N1CCc2[nH]nc(-c3ccc(F)c(F)c3)c2C1	?
O=C1CCCCC(Cc2ccccc2)(C(=O)NC2CCS(=O)(=O)C2)N1 (centres undefined)	1.7%
CNC(=O)c1cc(-c2ccccc2)cc2c1OCCN2Cc1cccnc1	-3.1%[70.6 µM]
COC1CN(C2CCN(C(=O)C3CCCC3)CC2)C12CCOCC2 (centres undefined)	2.0%
CC1(C(=O)NCCCN2CCCc3ccccc32)CCCCC(=O)N1 (centres undefined)	-5.2%
O=C(c1cccc(Cn2cccn2)c1)N1CCOC(c2ccc(Cl)cc2)C1 (centres undefined)	?
C=CCN1CC2(CCC1=O)CCN(C(=O)CC(C)n1ccnc1C)CC2 (centres undefined)	-1.2%
Cc1cc2c(c(=O)n(-c3ccc(F)cc3)c(=O)n2CC(=O)Nc2ccccc2Cl)n1C	-0.7%
C=CCN1CCN(C(=O)C2N(c3ccc(OC)cc3)C(=O)C23CCCCC3)CC1 (centres undefined)	3.2%
CCc1nc(-c2c3n(c(=O)n(CC(=O)NCc4cccs4)c2=O)CCCC3)no1	-9.8%
Cc1ccc(N2Cc3c(NCCCc4ccccc4)ncnc3N(C)CC2=O)cc1	6.3%
Cn1cncc1-c1nnc([C@H]2CCN(C(=O)c3ccncc3)C2)o1	2.7%[70.6 µM]
Cc1cccc(-n2nc(C)c(CCC(=O)NC3CC3)c2Oc2ccc(F)cc2F)c1	-4.2%
CCCOc1ccc(CNC(=O)CC2CCOCC2)cc1	10.8%
Cc1cnc(CC2CCNCC2)n1Cc1ccc(F)cc1	5.7%
COc1cccc(C(=O)NC2CCCN(c3cc(-c4ccc(F)cc4)[nH]n3)C2)c1 (centres undefined)	-17.0%
CC(C)(C)CC(=O)Nc1nc2c(s1)C[C@@H]1[C@](C)(CO)[C@H](O)CC[C@@]1(C)[C@@H]2CC(=O)NCCN1CCOCC1	-2.6%
COc1ccccc1C(=O)N1CCC(c2n[nH]c(=O)n2Cc2ccc(F)cc2)CC1	-11.6%
NC(=O)c1ccc(OC2CCN(C(=O)c3ccccc3Cl)CC2)nc1	-2.4%
CC(C)Oc1cccc(-c2nnc(CCC(=O)N3CCC(Cc4ccccc4)CC3)c(=O)[nH]2)c1	-16.6%
The list continues:
SMILES	NPR1 antag
CC(=O)N1CCC([C@@H]2CN(Cc3ccc(F)cc3Cl)C[C@H]2CO)CC1	0.2%
Cc1nn(C)c(C)c1C(=O)NCCn1c(C)cnc1C1CCC1	6.9%
Cc1cc(N2CCN(Cc3cc4n(n3)CCNC4)CC2)n2ncnc2n1	4.2%
Cc1cccc2nc(C(=O)N(C)C3CCCN(CCc4ccccc4)C3)cn12 (centres undefined)	0.1%
COc1cccc(N2C(=O)NC(=NC3CCCCC3)C23CCN([S+](C)(=O)[O-])C3)c1 (centres undefined)	30.8%[activator]
COc1ccc(C(=O)N2CCC(N3C(=O)C(OC)C34CCOCC4)CC2)cn1 (centres undefined)	-13.0%
CC(C)n1ccnc1C1CCCN(Cc2cscn2)C1 (centres undefined)	3.4%
CN(Cc1cncs1)C1CCc2ccccc21 (centres undefined)	16.8%[70.6 µM]
FC(F)(F)c1cccc(-c2nccn3c(C4CN(Cc5ccc6cn[nH]c6c5)C4)ncc23)c1	-16.1%
Cc1ccc2nc(CO[C@H]3CN(C(=O)C4CC4)C[C@H]3F)[nH]c2c1	-14.5%[70.6 µM]
CN(Cc1ccccc1)Cc1cn([C@H]2CO[C@H]3[C@@H]2OC[C@@H]3NCC2CCCCC2)nn1	-0.2%[70.6 µM]
O=C(c1cccc(F)c1)N1CCCC(Nc2ccc(F)cc2)C1 (centres undefined)	-0.1%
